# YjeE inh = YjeE (TsaE) inhibition, E. coli | P0AF67 | purified YjeE, fluorescence polarisation of a bound ADP probe | Potency, µM | actives 0.05% (n = 71,000); active = well fitted falling curve; inconclusive = weaker or top-dose-only fall, or a rising curve; inactive = flat or poorly fitted curve;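 note: top concentration of the series not given in the record; excess ADP was the control for the full effect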
#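 Purified YjeE (10 uM) with BODIPY Texas Red-labeled ADP probe (2 uM); compounds pin-transferred, 15 min at room temperature. Binding inhibition read as decreased fluorescence polarization; ADP titration as control.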
# PK Bst = modulators of Bacillus stearothermophilus pyruvate kinase; partly purified Bacillus stearothermophilus pyruvate kinase, luminescence ATP production; ribose 5-phosphate activator present at AC10; Potency, µM; actives 1.2% (n = 51,000); in the data active means potency below about 11 µM; inconclusive means mostly about 12 µM to 25 µM; inactive means weaker than that;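 the screen sought inhibitors and activators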;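 note: potency is the fitted concentration of half-maximal effect; scaled between full activation by ribose 5 phosphate and full inhibition by luteolin; about four in five hits inhibit and the cells do not say which; series up to 57 µM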
# * hit, by the source's call; i = inactive; ? = inconclusive; . = not tested or not shown. Not all compounds are listed. The share of hits here may be higher or lower than overall.
no.	mol	YjeE inh	PK Bst
1	Cc1nn(C)c(C)c1NC(=O)c1ccc(S(=O)(=O)N(C)C)cc1	i	>57
2	O=C(NC1=NCCS1)c1ccc(-c2ccc(Cl)cc2)o1	i	5.38*
3	O=C(COc1ccc(Cl)cc1Cl)Nc1ccc(Cl)cn1	i	.
4	Cc1c(C)c2c(c(C)c1O)CC[C@@](C)(CN1CCN(c3cc(N4CCCC4)nc(N4CCCC4)n3)CC1)O2	i	.
5	O=C1COc2ccc(C(=O)CSc3nnnn3-c3ccccc3)cc2N1	i	>57
6	CCOc1cc(N2CCOCC2)c(OCC)cc1NC(=O)CN1C(=O)NC(Cc2ccccc2)C1=O (stereo not given)	i	>57
7	c1cncc(-c2cccnc2)c1	i	>57
8	COc1ccc(N(CC(=O)Nc2cccc(C(C)=O)c2)S(C)(=O)=O)cc1OC	i	.
9	COc1ccc2cc(C#N)c(SCC(=O)N3CCCC3)nc2c1	i	.
10	CC1Cc2ccccc2N1C(=O)Cc1cccs1 (stereo not given)	i	>57
11	Cc1ccc(-n2c(SCC(=O)Nc3ccc4cn[nH]c4c3)nnc2-c2ccco2)cc1	i	>57
12	COc1ccc2cccc(N3CCN(CCNC(=O)c4ccc(F)cc4)CC3)c2c1	i	.
13	O=C(O)COc1ccc(C(=O)Cc2ccc3c(c2)OCCCO3)c(O)c1	i	>57
14	Cc1cccc(N2CCN(C(c3ccccc3)c3nnnn3CC3CCCO3)CC2)c1C (stereo not given)	i	>57
15	O=C1OC(Nc2nccs2)c2ccccc21 (stereo not given)	i	>57
16	CCOC(=O)CSC1=Nc2ccccc2C2=NC(CC(=O)NCc3cccs3)C(=O)N12 (stereo not given)	i	>57
17	CC(=O)N1CCC2(CCCN(c3ncccn3)C2)CC1	i	.
18	COc1ccc(C(=O)[C@H]2[C@H]3[C@@H](C(=O)[C@@H]4OC[C@H]3O4)[C@H]3C=Cc4ccccc4N32)c(OC)c1	i	.
19	CCN(CC)C(=O)CN(Cc1ccccc1)S(=O)(=O)c1ccc(F)cc1	i	.
20	CCOC(=O)CCCNC(=O)c1cncc(Br)c1	i	.
21	N#Cc1ccsc1NC(=O)c1ccccn1	i	>57
22	Cc1ccc(NC(=O)CSc2nnc(Cn3c(=O)sc4ccccc43)n2C)cc1Cl	i	.
23	N#Cc1nc(-c2cccc3ccccc23)oc1N1CCCCC1	i	>57
24	Cc1cc(C)nc(NC(=NCCc2c[nH]c3ccccc23)NC(=O)c2ccco2)n1	i	>57
25	COc1ccc2c(c1)C(C)=CC(C)(C)N2C(=O)CSc1nnc(-c2ccc(C)cc2)o1	i	.
26	N#Cc1ccc(CSc2nnc(-c3cccnc3)n2-c2ccccc2)cc1	i	>57
27	Cn1c(SCC(=O)OCC(=O)c2ccccc2)nnc1-c1cccs1	i	>57
28	CCN1CCN(c2ccc(-n3c(C)nc4c(cnn4-c4ccccc4Cl)c3=O)cc2)CC1	i	>57
29	CCOC(=O)C(O)(CCC(O)(C(=O)OCC)C(=O)OCC)C(=O)OCC	i	.
30	CCOc1cccc2cc(C(=O)NCc3cccnc3)c(=O)oc12	i	>57
31	Cc1ccc(C2CC(c3ccc(Cl)cc3)n3nc(N)nc3N2)cc1 (stereo not given)	i	.
32	CC(C)(C)NC(=O)Cn1c(=O)oc2ccc(Cl)cc21	i	.
33	CCCCOc1ccc(-c2ncc(C(=O)O)c(C)n2)cc1	i	.
34	Cc1cc2nnc(SCC(=O)N3C(C)CCCC3C)n2c(N)n1 (stereo not given)	i	>57
35	O=C(COc1ccc(Cl)cc1)OCC(=O)N1CCCC1	i	>57
36	COc1ccc(NC(=O)CSc2nc3c(c(=O)n2-c2ccc(F)cc2)SCC3)cc1	i	.
37	Cc1cnc(-c2nnc(N(C)C(=O)c3cccnc3)s2)cn1	i	>57
38	CCOC(=O)CSc1nnc(CSc2nc3ccccc3s2)n1C	i	i
39	c1ccc(-n2c(Sc3cnccn3)nnc2-c2cccs2)cc1	i	>57
40	COc1ccc(C2C(C(=O)NCCN(C)C)c3cc(OC)c(OC)cc3C(=O)N2C)cc1OC (stereo not given)	i	>57
41	COC(=O)C1=CN(C)C=C(C(=O)OC)C1c1ccc(Cl)cc1Cl	i	.
42	CC1=C(C(=O)N(C)C)C(c2cccc(Cl)c2)NC(=O)N1 (stereo not given)	i	>57
43	CCOC(=O)c1c(N)n[nH]c1-c1ccc(OC)cc1	i	.
44	O=C1CSc2ccc(C(=O)N3CCN(c4ccccn4)CC3)cc2N1	i	>57
45	COc1cccc(N2C(=O)C3CCCN3C2c2ccc(Cl)cc2)c1 (stereo not given)	i	.
46	CCOC(=O)N1CCC(NS(=O)(=O)c2cc3c(cc2Cl)NC(=O)CO3)CC1	i	>57
47	CCC(=O)c1ccc(OCC(=O)Nc2nn3cnnc3s2)cc1	i	>57
48	COC(=O)c1ccc(NC(=O)CN2C(=O)CCC2=O)cc1	i	>57
49	Cc1ccc(-n2ncc3c(=O)[nH]c(SC(C)C)nc32)cc1	i	.
50	CCCCN(CCCC)S(=O)(=O)c1ccc(C(=O)Nc2nnc(CSC)o2)cc1	i	>57
51	Cc1cccc2nc(C(F)(F)F)nc(=O)n12	i	>57
52	COc1ccc(-c2nc3cnc(N4CCOCC4)nc3n(-c3ccc(OC)cc3)c2=O)cc1	?	.
53	CCOC(=O)NC(C(F)(F)F)(C(F)(F)F)P(=O)(c1ccccc1)c1ccccc1	i	.
54	COc1ccc2nc(NC(=O)CSc3nc4cccnc4n3C)sc2c1	i	>57
55	COc1ccc(C(=O)Oc2c(CN3CCOCC3)cc(Cl)c3cccnc23)cc1	i	>57
56	COc1ccc(S(=O)(=O)N(C)CC(=O)Nc2ccc3c(c2)OCCO3)cc1OC	i	>57

# Carrying on.
no.	mol	YjeE inh	PK Bst
57	Cc1ccc(O)c(-c2cc(C(F)(F)C(F)F)[nH]n2)c1	i	>57
58	CC12CCC(C(=O)Nc3ccc4c(c3)OCCO4)(OC1=O)C2(C)C (stereo not given)	i	.
59	COC(=O)[C@@H]1[C@@H]2C[C@H]3c4[nH]c5cc(OC)ccc5c4CCN3C[C@@H]2C[C@H](OC(=O)/C=C\c2cc(OC)c(OC)c(OC)c2)[C@H]1OC	i	.
60	C/C(NC(=O)c1ccccc1)=C1/C(=O)CC2C1C2(C)C (stereo not given)	i	.
61	O=C1c2ccccc2NC(c2ccc(F)cc2)N1Cc1ccco1 (stereo not given)	i	>57
62	CN1C=CC=C/C1=C(\C#N)c1nc2ccccc2[nH]1	i	>57
63	Cc1ccccc1-c1cncnc1NCc1ccccc1	i	.
64	COCCN(C(=O)Cn1nnc2ccccc21)C(C(=O)NC1CCCC1)c1cccc(OC)c1OC (stereo not given)	i	>57
65	COc1ccc(-n2nc(C(=O)Nc3ccc4c(c3)OCO4)c3c4ccccc4n(C)c3c2=O)cc1	i	>57
66	COC(=O)CS(=O)(=O)c1cc(Br)cc2c1N(C(C)=O)CC2	i	>57
67	COc1ccc(-n2cnc3c(cnn3CCC#N)c2=N)cc1	i	.
68	Cc1c(NC(=O)Nc2ccc(Cl)c(Cl)c2)c(=O)n(-c2ccccc2)n1C	i	.
69	Cc1c(C(=O)O)c(-c2ccccc2)nn1-c1ccccc1	i	.
70	CCCC(=O)Nc1ccccc1-c1nnn(CC(=O)Nc2ccc(OC)cc2)n1	i	>57
71	Cc1cccn2cc(CCNS(=O)(=O)c3ccc4c(c3)OCCO4)nc12	i	.
72	O=C(COC(=O)c1ccco1)Nc1ccc2c(c1)OCCO2	i	?

# Compounds above that contain a furan ring, fused or not (5):
no.	mol	YjeE inh	PK Bst
2	O=C(NC1=NCCS1)c1ccc(-c2ccc(Cl)cc2)o1	i	5.38*
11	Cc1ccc(-n2c(SCC(=O)Nc3ccc4cn[nH]c4c3)nnc2-c2ccco2)cc1	i	>57
24	Cc1cc(C)nc(NC(=NCCc2c[nH]c3ccccc23)NC(=O)c2ccco2)n1	i	>57
61	O=C1c2ccccc2NC(c2ccc(F)cc2)N1Cc1ccco1 (stereo not given)	i	>57
72	O=C(COC(=O)c1ccco1)Nc1ccc2c(c1)OCCO2	i	?

# New compounds follow:
no.	mol	YjeE inh	PK Bst
73	N=c1c[n+](N2CCOCC2)[n-]o1	i	>25.6
74	Cc1cc(NC(=O)CSc2nnc(-c3ccncc3)n2N)ccc1Br	i	>57
75	O=C(Nc1ccc(N2CCN(C(=O)c3ccc(Cl)cc3)CC2)cc1)c1ccc(Br)o1	i	?
76	S=C(S)N1CCCC1	?	.
77	CC(C)CN1CC[C@@]2(CCCN(C(=O)c3cccc(F)c3)C2)C1	i	.
78	COc1cccc(NC(=O)CSc2nncn2N)c1	i	>57
79	CN1CCN(C(=O)c2cc3nc(-c4ccc(Cl)cc4)cc(C(F)(F)F)n3n2)CC1	i	.
80	Cc1cc(Cl)ccc1OCC(=O)Nc1ccccc1N1CCOCC1	i	>57
81	COc1cc(NC(=O)C2CCCN2C(=O)C2CCC(C)CC2)cc(OC)c1OC (stereo not given)	i	.
82	COc1ccc(S(=O)(=O)Nc2ccccc2C(=O)NCc2ccco2)cc1Br	i	>11.4
83	O=c1[nH]c2ccccc2c(=O)n1Cc1ccco1	i	>57
84	COc1cc(C(=O)Nc2cccc(-c3nc4ccccc4o3)c2C)cc(OC)c1OC	i	.
85	CC(C)CNc1cc(=O)n(C)c(=O)n1C	i	>57
86	CCCCNC(=O)OCC(CC)NC(=O)OC(C)C (stereo not given)	i	>57
87	O=C(NCc1ccccc1)NC1(C(=O)N2CCOCC2)CCCCC1	i	>57
88	CCCc1cc2c(n1Cc1ccc(OC)cc1)C(C)C1CN(C(=O)c3ccccc3)C(C)(C(=O)OC)C21 (stereo not given)	i	.
89	CCSc1nnc(NC(=O)C(C)(C(F)(F)F)C(F)(F)F)s1	.	>25.6
90	Cc1noc(C)c1S(=O)(=O)Nc1ccc(C(=O)NC2CCCCCC2)cc1	i	>57
91	Cc1noc(C)c1-c1nc(N(C)Cc2ccco2)c2ccccc2n1	i	.
92	O=C(O)CSc1nnc(Cn2nnc3ccccc32)n1CCc1ccccc1	i	>57
93	CC1(C)C(=O)OC(c2c(F)c(F)c(F)c(F)c2F)C2(CCCCC2)C1=O (stereo not given)	i	?
94	O=C(N[C@@H](c1ccccc1)[C@@H]1C[C@H]1C(=O)NCc1ccccn1)OCc1ccccc1	i	.
95	Cc1cccc(NC(=O)COc2ccc(Br)cc2)n1	i	.
96	Cc1ccccc1C(=O)Nc1ccccc1	i	.
97	CCOc1ccccc1C(=O)Nn1c(C2CCC2)nc2ccccc2c1=O	i	>57
98	COc1ccc(Cl)c(NCCC(=O)O)c1	i	>57
99	COc1cccc(-c2nc(NCc3cccs3)c3ccccc3n2)c1	i	.
100	COC(=O)[C@@]1(Cc2ccccc2)[C@H]2c3cc(C(=O)N4CCCC4)n(Cc4cccc5ccccc45)c3C[C@H]2CN1C(=O)c1ccccc1	i	.
101	CS(=O)(=O)Nc1ccc(S(=O)(=O)Nc2nccs2)cc1	i	>57
102	CN(C)c1ccc(-c2nccc(Nc3ccc(F)cc3)n2)cc1	i	.
103	O=C(NC(Cc1ccccc1)c1nc2ccccc2[nH]1)C1CC(=O)N(c2ccc3c(c2)OCCO3)C1 (stereo not given)	i	>57
104	O=C(c1ccccc1)c1ccc2nc[nH]c2c1	i	>57
105	O=C1c2cccnc2C(O)N1C1CCCCC1 (stereo not given)	i	>57
106	COc1ccc(OC)c(N(CC(=O)Nc2ccc3c(c2)OCCO3)S(C)(=O)=O)c1	i	.
107	Cc1cc(C)c(C)c(OCCOCCN2CCOCC2)c1	i	.
108	Cc1ccc2c(c1)C(C)(C)[C@]1(C)NC(=O)CCN21	i	>57
109	CCOCCCNC(=O)CCS(=O)(=O)Cc1ccc(C)cc1	i	>57
110	COc1ccc2nc3oc(C(=O)NC4CCN(Cc5ccccc5)CC4)cc3cc2c1	i	.
111	CCCC(=O)c1ccc(N2CCN(S(=O)(=O)c3ccc(C)cc3)CC2)c(F)c1	i	>57
112	COc1ccc(OCCCN2CCCC(C)C2)cc1 (stereo not given)	i	>57
113	COc1cc(CN2CCN(c3cccc(C)c3C)CC2)cc(OC)c1O	i	.
114	COc1cccc(CN2CCN(C(=O)CC(C)C)CC2)c1	i	.
115	O=C(O)c1ccc(Br)c(S(=O)(=O)N2CCCC2)c1	i	.
116	CCOc1cc(C2C(C(=O)N3CCCCC3)=C(C)NC3=C2C(=O)CC(C)(C)C3)ccc1O (stereo not given)	i	>57
117	CC1(C)Cc2ccccc2C(N)=C1C#N	i	.
118	CCOC(=O)N1CCN(Cc2ccccc2Cl)CC1	i	>57
119	COc1cc2c3c(c1)C1(C(=O)N3C(C)(C)C=C2C)C(C#N)=C(N)Oc2cc(O)ccc21 (stereo not given)	i	>57
120	CCc1ccccc1-n1c(SCC(=O)N2CCCC2)nnc1-c1ccccn1	i	>57
121	COc1ccc2[nH]c(C(=O)O)c(CCNC(C)=O)c2c1	i	>57
122	COC(=O)c1ccc(CSc2nccn2C)cc1	i	>57
123	N#Cc1nc(-c2ccccc2F)oc1N1CCCC1	i	.
124	O=C(COc1ccc2c3c(c(=O)oc2c1)CCC3)NC1CCCCC1	i	.
125	Cc1cccc(NC(=O)c2cnc3sccn3c2=O)c1	i	.
126	CCOC(=O)c1cc(=O)cc(C(=O)OCC)o1	i	>57
127	CCc1nnc(NC(=O)CSc2nnc(Cc3ccccc3)n2-c2ccc(OC)cc2)s1	i	>57
128	O=C(CCCn1c(=S)[nH]c2ccccc2c1=O)N1CCOCC1	i	>57
129	Cc1cc(NC(=O)CSc2ccc(Cl)cc2)no1	i	>57
130	CCN(CC)C(=O)C1CCCN(C(=O)Nc2ccc3nsnc3c2)C1 (stereo not given)	i	.

# Bioassay records as filed in PubChem BioAssay.
